Screens: PubChem, several laboratories
HIV Env fusion = HIV envelope-mediated fusion inhibition; AID 651610; inhibition, % at 12.3 µM; 360,000 compounds, 1.1% hits; HeLa-JRFL Env/CEM21 cell fusion, luciferase;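 active = mean replicate inhibition score of at least 50 and every replicate individually at or above 50; inconclusive = only one of the two criteria met; inactive = mean below 50 and not all replicates reaching 50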;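 also: 0% = plate neutral controls and 100% = maraviroc near 300 nM; one replicate is shown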
Rce1 inhib = yeast Ras-converting enzyme inhibition. yeast membranes, quenched prenylated peptide cleavage fluorescence. 290,000 compounds, 0.27% hits. Q03530. calls only;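 active = fall in fluorescence gain of 50% or more versus controls, with final raw signal at or below 3038400; inconclusive = same 50% fall but final raw signal above 3038400; inactive = fall in fluorescence gain under 50%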;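 also: plate controls were neutral control wells for no effect and wells lacking membranes for full effect; tested at 10 µM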
MT1-MMP act inh = blocks activation of human MT1-MMP; P50281; HT1080 RFP-PRO-GFP cells, GFP/RFP ratio fluorescence, overnight; percent of plate control window, DMSO zero; GFP/RFP ratio change, % at 20 µM; 360,000 compounds, 0.061% hits; AID 651647;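 active = GFP/RFP ratio change of at least 30% with cell ATP level not reduced by more than half and red fluorescence within 50% of control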; also: strong numbers were not always called active
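Test system: HT1080 cells expressing an RFP-PRO-GFP fluorescent reporter construct / Compound dosing: single-point 20 µM compound, 1% DMSO / Schedule: cells overnight before dosing, compound overnight, 37 °C, 5% CO2 / Evaluation: GFP/RFP fluorescence ratio / Control set: DMSO and RFP-L50D-GFP cell wells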
PABP FP inh = blocks human PABP binding to poly(A) RNA; fluorescence polarization; 290,000 compounds, 1% hits; P11940; inhibition, % at 35 µM;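 active = 50% or more with normal probe brightness, or confirmed in later tests; inconclusive = above 50% with abnormal brightness, or retests that disagree; inactive = below 50% or failed in later tests; about a fifth of its hits are not listed in these tables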;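 also: calls also rest on retests at 20 µM and on dose response follow-up; controls were probe without protein and protein plus probe with vehicle; some compounds called inactive have numbers as strong as hits; many hits fall short of the cut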
Target sequence (P11940 whole entry, looked up): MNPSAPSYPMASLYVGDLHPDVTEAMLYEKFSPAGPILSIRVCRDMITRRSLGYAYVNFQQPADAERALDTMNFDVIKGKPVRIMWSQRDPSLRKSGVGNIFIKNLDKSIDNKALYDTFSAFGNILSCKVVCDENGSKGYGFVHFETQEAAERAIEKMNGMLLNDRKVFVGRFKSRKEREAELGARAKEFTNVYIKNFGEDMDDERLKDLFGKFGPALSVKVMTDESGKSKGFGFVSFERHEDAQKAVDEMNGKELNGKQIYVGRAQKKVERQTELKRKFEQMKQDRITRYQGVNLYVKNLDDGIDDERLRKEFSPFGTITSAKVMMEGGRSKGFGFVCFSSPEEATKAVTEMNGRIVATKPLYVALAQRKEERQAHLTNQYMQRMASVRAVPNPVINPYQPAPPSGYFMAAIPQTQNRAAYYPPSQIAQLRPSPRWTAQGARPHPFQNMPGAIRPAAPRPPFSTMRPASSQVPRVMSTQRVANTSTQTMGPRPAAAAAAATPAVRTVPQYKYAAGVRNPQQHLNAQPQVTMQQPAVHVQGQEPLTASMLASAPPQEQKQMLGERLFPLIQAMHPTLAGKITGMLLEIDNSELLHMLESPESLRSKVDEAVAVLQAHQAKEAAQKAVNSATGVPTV
CSC inhib = cancer stem cell inhibition | cancer stem cell-like cells viability, luminescence | inhibition, % at 7.5 µM | 300,000 compounds, 1.1% hits;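 active = mean at 75% or more and at least half the replicates too; inconclusive = mean and replicates disagree; tested in HMLE shEcad cells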;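 also: 0% = median of negative and 100% = median of positive control wells; the first replicate is given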
eIF4H inh = inhibitors of RNA binding by human eIF4H. 290,000 compounds, 0.94% hits. Q15056. inhibition, % at 35 µM. eIF4H fluorescence polarization binding assay;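 active = 50% or more with normal probe brightness, or confirmed in later tests; inconclusive = above 50% with abnormal brightness, or retests that disagree; inactive = below 50% or failed in later tests; about a fifth of its hits are not listed in these tables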;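 also: calls also rest on retests at 20 µM and on dose response follow-up; 0% = protein and probe with vehicle and 100% = probe without protein; strong numbers were not always called active; many hits fall short of the cut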
Yeast UUG start = yeast start codon fidelity modulation | 350,000 compounds, 0.13% hits | activity score, % at 18.7 µM | S. cerevisiae UUG-firefly luciferase reporter, luminescence/redox ratio;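 active = replicate mean at a twofold rise or more, about +100% in these data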;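 also: firefly luciferase made from a UUG start codon reports start codon fidelity; reporter light over untreated wells divided by growth signal over untreated wells; some hits fall short of that in this replicate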
eIF4H inh retest = recorded beside eIF4H inh, whose call it bears; inhibition, %; compound at 20 µM; confirmation average;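 mean of two retest wells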
PABP FP inh retest = further read-out of PABP FP inh, marked with its call; inhibition, %; compound at 20 µM; confirmation repeats;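 mean of two retest wells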
MT1-MMP act inh RFP = recorded beside MT1-MMP act inh, whose call it bears; RFP signal change, %; measured here: RFP expression control read;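 0 = vehicle wells; hits needed this value within 50% of zero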
Numbers without * were called inactive; i = inactive; ? = inconclusive; · = no result given; & = joins results of further samples.

SMILES | HIV Env fusion | Rce1 inhib | MT1-MMP act inh | MT1-MMP act inh RFP | PABP FP inh | CSC inhib | eIF4H inh | Yeast UUG start | others
Cc1cccnc1CN1CCN(C(=O)c2cc(COc3ccc4ncccc4c3)on2)CC1 | 39 | i | -16 | -35 | 7 | 12 | -13 | ·
Cc1ccc(NC(=O)CSc2nnc(N)s2)cc1S(=O)(=O)N1CCOCC1 | -71 | i | 1 | -1 | · | -9 | · | -16
O=C(Cn1nc(C(F)F)cc1C1CC1)NCCC1=CCCCC1 | · | i | 2 | 0 | -3 | -11 | -14 | 0
O=C(COC(=O)c1ccc(S(=O)(=O)N2CCCCCC2)cc1)NCc1ccc(F)cc1 | -1 | · | 0 | -6 | · | · | · | -10
CC(C)(C)OC(=O)CNC(=O)c1nc[nH]c1C(=O)N1CCN(c2ccccc2)CC1 | -5 | i | 2 | -1 | 5 | -9 | -4 | 4
COc1ccc(C)cc1NC(=O)C1CCN(S(C)(=O)=O)CC1 | 7 | i | 2 | 3 | 3 | -15 | -4 | -2
COC(=O)c1cc(C(=O)Nc2cc(C)on2)cc([N+](=O)[O-])c1 | 3 | i | 2 | 4 | 1 | · | 11 | -4
CCCCn1nnnc1C(c1cc2ccccc2o1)N1CCN(C/C=C/c2ccccc2)CC1 (stereo unspecified) | 57 | · | 3 | -7 | · | · | · | 16
COc1ccc(Nc2cc3n(c(=O)n2)CCc2cc(OC)c(OC)cc2-3)c(C)c1 | -6 | i | -3 | 2 | 3 | 0 | -1 | -15
O=c1cc(-c2ccccc2)[nH]n1-c1ccccc1 | 26 | · | 1 | -6 | · | · | · | -15
Cc1ccc(OCCC(=O)OC(C)C(=O)Nc2ccc(Cl)cn2)cc1 (stereo unspecified) | -4 | i | 3 | -3 | · | -6 | · | ·
CCc1ccc(CN(C)CC(O)COc2cccc3ccccc23)cc1 (stereo unspecified) | 8 | i | 1 | 1 | -2 | 64 | 7 | 4
COc1ccc2c(C)cc(SCC(=O)Nc3nsc(-c4ccc(C)cc4)n3)nc2c1 | 6 | i | 2 | 1 | -3 | -1 | 0 | -5
CCOc1ccc(/C=N/n2cc(-c3ccccc3)[nH]c2=S)cc1 | -10 | i | 5 | -16 | 6 | 1 | -8 | -37
CCOc1ccc(NC(=O)c2cccc(OC(=S)N3CCOCC3)c2)cc1 | 5 | i | -12 | -11 | -15 | -6 | -2 | ·
Cc1c(C(=O)O)sc2nc(CSc3ncc(C(F)(F)F)cc3Cl)[nH]c(=O)c12 | -6 | i | -2 | -1 | 8 | 3 | 12 | ·
O=C(Nc1cccnc1)Nc1ccccn1 | -13 | i | -1 | -10 | -9 | -5 | 6 | -19
O=C(NC1CCCCC1)c1cccnc1Sc1ccccc1Cl | 9 | i | 4 | 4 | 0 | 3 | -7 | -19
NC(=O)c1ccc(SCC(=O)OCC(=O)N2CCN(C(=O)c3ccco3)CC2)c([N+](=O)[O-])c1 | -1 | · | 2 | 0 | · | -9 | · | 11
COc1ccc(NC(=O)CSC2=C(C#N)C(c3ccco3)C3=C(CCCC3=O)N2)c(OC)c1 (stereo unspecified) | 1 | i | 0 | -2 | 7 | -8 | -8 | 5
CCCCC1S/C(=N/N=C/c2cccs2)NC1=O (stereo unspecified) | -2 | i | 8 | 8 | 20 | 1 | -1 | ·
Cc1csc(N(C(=O)c2cccc(S(=O)(=O)N3CCCC3)c2)c2ccccc2)n1 | · | i | -3 | -2 | 7 | -7 | 11 | ·
COC(=O)c1ccc(CNC(=O)CNC(=O)c2sc3ccccc3c2Cl)cc1 | 7 | i | -1 | 2 | · | -2 | · | -26
Cc1ccc(S(=O)(=O)CC(=O)NC(C)c2ccccc2)cc1 (stereo unspecified) | 6 | i | -1 | 4 | 7 | 3 | -4 | -9
C[C@H](NC(=O)c1ccco1)C(=O)NNC(=O)COc1cccc(C(F)(F)F)c1 | -2 | · | -4 | -1 | · | -10 | · | 6
Cc1ccc(NC(=O)CCNS(=O)(=O)c2ccc3c(c2)oc(=O)n3C)cc1C | -47 | i | 1 | 6 | 3 | 3 | 7 | ·
COc1ccc(C(=O)COc2ccccc2C(N)=O)cc1 | -17 | i | -1 | -5 | -2 | -18 | 1 | -39
CC(C)Sc1nsc2nc(=O)c(/C=C3\C=Nc4ccccc43)c(N)n12 | -21 | i | -1 | -5 | 49 | 35 | 44 | 0
COc1ccc(OC)c(NC(=O)c2cc3sccc3n2C)c1 | · | i | -7 | 1 | 5 | -8 | 4 | -3
CCOc1cccc(-c2c(C(=O)N/N=C/c3ccco3)nnn2-c2nonc2N)c1 | · | i | -2 | 3 | 8 | -3 | -7 | -16
NS(=O)(=O)c1ccc(CNS(=O)(=O)Cc2ccc(Cl)cc2)cc1 | 11 | i | 0 | -1 | -10 | -4 | 3 | -1
CCc1ccc2nc(SCC(=O)N3CC(=O)Nc4ccccc43)c(C#N)cc2c1 | -75 | · | -58 | -13 | -8 | -9 | 69 | -13 | eIF4H inh retest=-12;PABP FP inh retest=10
COc1cccc(/C=N/NC(=O)c2cccc([N+](=O)[O-])c2)c1OS(=O)(=O)c1ccc(C)cc1 | -10 | i | 7 | 0 | -6 | -15 | 2 | -10
CCCCNC(=O)/C(=C/c1ccccc1)NC(C)=O | -3 | i | -4 | 4 | 6 | 10 | 1 | ·
O=C(C1=C[C@@H]2[C@H]3C(=O)N(c4ccccc4Cl)C(=O)[C@H]3[C@@H](C(=O)c3ccc(Cl)cc3)N2C=C1)c1ccccc1 | · | i | · | · | 12 | 27 | 52* | · | eIF4H inh retest=51*;PABP FP inh retest=31
O=c1[nH]c2cc3c(cc2cc1CN(Cc1cccnc1)C(=S)NCc1ccco1)OCCO3 | -9 | i | -4 | -3 | 14 | 12 | 9 | ·
Fc1cccc(Cl)c1CSc1nnc(CNc2ccccc2)o1 | -9 | i | 1 | -2 | -4 | -6 | -9 | ·
O=C(NCc1ccc(Cl)cc1)C(=O)Nc1nccs1 | -3 | i | 2 | 3 | 10 | 1 | 3 | ·
COC(=O)c1cn(NC(=O)c2cnccn2)c(=O)c2ccccc12 | -23 | i | 6 | -1 | 1 | 19 | -3 | -40
CCOC(=O)Cc1nn(C(C)C)c(=O)c2ccccc12 | 6 | i | -2 | 1 | -11 | -13 | -4 | -32
O=C(OCc1cn([C@H]2C[C@H](c3ccccc3)N(C(=O)c3cccs3)C[C@@H]2O)nn1)c1ccccc1 | -6 | · | 2 | 4 | · | · | · | -13
CCOC(=O)c1cnc2cc(-c3ccc(Br)cc3)nn2c1C | -19 | i | -2 | -2 | 3 | 2 | -9 | -4
CC1(C(=O)NCCC#N)CCN1C(=O)Cc1ccc(-c2ccccc2)cc1 (stereo unspecified) | 4 | · | 3 | -4 | · | · | · | -11
CCOC(=O)CC(=O)COc1nc2cc3c(nc2o1)CCCC3 | -22 | i | -6 | 1 | 10 | -5 | 10 | -12
Cc1cccc(C(=O)NCC(=O)N2CCN(S(=O)(=O)c3cc(C)ccc3C)CC2)c1 | 0 | i | -4 | -7 | · | 2 | · | ·
O=c1cnn(-c2ccccc2)c(-c2ccccc2)c1 | -53 | i | -3 | -6 | 3 | 9 | 6 | -10
COc1cccc(CCc2nnc(CCC(=O)NCCc3cccc(C)n3)o2)c1 | -1 | i | 1 | 4 | 7 | -25 | 8 | -10
CN(C)C(C(=O)NC1CCCCC1)c1ccc(Cl)cc1 (stereo unspecified) | -79 | i | 0 | 7 | 7 | 0 | 2 | -15
N#Cc1c(-c2ccccc2Cl)cc(-c2ccccc2)nc1Br | · | i | -3 | 0 | 16 | 23 | 7 | ·
O=C(NCC1CCCN1S(=O)(=O)c1cccs1)C(=O)Nc1ccc(F)cc1 (stereo unspecified) | 3 | i | 5 | 3 | · | 13 | · | ·
CN(C)C(/C=C/Nc1cccc([N+](=O)[O-])c1)=C(C#N)C#N | -24 | i | -7 | -4 | 2 | -15 | -9 | ·
C[C@H]1CN([C@@H](C)CO)C(=O)CCCn2nncc2CO[C@H]1CN(C)C(=O)c1cc(-c2ccccc2)on1 | 4 | · | -1 | 3 | · | · | · | -13&3
O=C(NCCC1=CCCCC1)C1CCN(C(=O)c2ccc(Br)cc2)CC1 | 1 | i | 0 | 2 | 4 | -14 | 0 | ·
CN(C)C(=O)N1CCc2ccc([N+](=O)[O-])cc21 | -3 | · | 3 | 3 | · | · | · | -8
O=C(Nc1cc(S(=O)(=O)N2CCOCC2)ccc1OCC(F)(F)F)c1ccc(N2CCCC2=O)cc1 | -7 | i | 3 | 2 | · | -14 | · | -1
C[C@@H](C(=O)Nc1ccc2ccccc2c1)[C@@H]1C[C@@]1(C)[C@@H](NC(=O)c1cnccn1)c1ccccc1 | 22 | · | 5 | 1 | 2 | -2 | 3 | -7
Cc1nn(CC(=O)NC2CCCCC2)c(C)c1[N+](=O)[O-] | 8 | · | -7 | 0 | · | · | · | -7
CC(/C=N/Nc1nc(C)cc(C)n1)=C\c1ccc(C(C)C)cc1 | -4 | i | -33 | -24 | 7 | 11 | -2 | -34
CCOC(=O)N1CCN(C(=S)NC(=O)/C=C/c2ccc(C)cc2)CC1 | -46 | · | -2 | -1 | -9 | -9 | -7 | -25
CCc1nnc(NS(=O)(=O)c2ccc(N=Cc3c(C)[nH]n(-c4ccc(Cl)cc4)c3=O)cc2)s1 | 26 | i | 9 | -1 | -6 | 13 | -7 | ·
The results go on.
SMILES | HIV Env fusion | Rce1 inhib | MT1-MMP act inh | MT1-MMP act inh RFP | PABP FP inh | CSC inhib | eIF4H inh | Yeast UUG start | others
O=C(COC(=O)c1cc(Cl)ccc1[N+](=O)[O-])NCc1ccc(Cl)cc1Cl | 12 | i | 3 | 5 | -4 | -10 | -7 | 0
Cc1cc(N/N=C/c2ccccc2O)c2ccccc2n1 | -4 | i | 13 | 0 | -9 | 22 | -1 | -5
O=S(=O)(NCC1CCCO1)c1ccc(S(=O)(=O)N(Cc2ccccn2)C2CC2)cc1 (stereo unspecified) | 4 | i | 5 | 7 | -1 | 6 | 0 | ·
O=C(NNC(=O)c1cccs1)c1ccccn1 | -6 | · | 4 | 1 | · | · | · | -27
O=C(Cc1ccccc1)Nc1c[nH]c(=O)[nH]c1=O | · | i | -5 | 2 | -2 | -22 | -4 | -8
O=C(CN1C(=O)CSc2ccc(S(=O)(=O)N3CCOCC3)cc21)NCCCN1CCCCC1 | 12 | i | -1 | 2 | 0 | -6 | -3 | -4
CCOc1ccc(S(=O)(=O)NC2CC2)cc1 | 3 | i | -1 | -1 | 1 | -7 | -15 | -29
Cn1c(C(=O)O)c(CC(=O)NCc2cccnc2)c2ccccc21 | · | i | -1 | 4 | -6 | 1 | -6 | -21
C[C@H](CO)NC(=O)c1nc[nH]c1C(=O)N[C@@H](C)c1ccccc1 | -15 | · | 2 | 5 | · | · | · | -13
C[C@H](CO)N1C[C@H](C)[C@H](CN(C)CC2CC2)Oc2ccc(NC(=O)CCN3CCOCC3)cc2C1=O | -30 | · | 2 | 5 | · | · | · | -7
Cc1ccccc1NC(=O)c1c([N+](=O)[O-])cnn1C | -12 | i | 1 | 3 | 0 | -15 | 8 | 0
COc1ccc(N2CCN(C(=O)C3CC(=O)N(c4ccc(C)cc4)C3)CC2)cc1 (stereo unspecified) | 8 | i | -1 | -1 | ? | 0 | 16 | -16
CN(C)c1ccc(/C=C2\N=C(c3ccc(Cl)c([N+](=O)[O-])c3)NC2=O)cc1 | 8 | i | -25 | 3 | -1 | 39 | 13 | ·
